# From PubChem
# H5N1 CPE = MDCK cell protection from H5N1 avian flu; AID 740; actives 0.07% (n = 96,000); cytopathic effect, luminescence, 72 h; hits give high values; no value below 0 was filed and about half of the inactive calls have no number; reference of the scale not given here; inhibition, % at 50 µM; in the data active = inhibition above about 25%
# * = called active by the depositor; i = inactive.
# Sample of the layout:
SMILES,H5N1 CPE
COc1ccccc1C(=O)n1nc(C)cc1C,i
COc1ccccc1CNC(=O)c1cc2c(C)nn(Cc3ccc(F)cc3)c2s1,i
Cc1cc(C)c2nc(N)sc2c1,i
COc1cccc(=O)c2c(C)oc(C)c12,1.7
Cc1ccc2nc3sc(C(=O)Nc4ccc(N5CCOCC5)cc4)c(N)c3cc2c1,0.1
CCOC(=O)Cc1csc2nc3sc(C)c(C)c3c(=O)n12,0.4
CCOc1cccc(C(=O)N(Cc2ccco2)C2CCS(=O)(=O)C2)c1 (configuration not stated),i

# The whole of this part, previewed entries included:
SMILES,H5N1 CPE
COc1ccccc1C(=O)n1nc(C)cc1C,i
COc1ccccc1CNC(=O)c1cc2c(C)nn(Cc3ccc(F)cc3)c2s1,i
Cc1cc(C)c2nc(N)sc2c1,i
COc1cccc(=O)c2c(C)oc(C)c12,1.7
Cc1ccc2nc3sc(C(=O)Nc4ccc(N5CCOCC5)cc4)c(N)c3cc2c1,0.1
CCOC(=O)Cc1csc2nc3sc(C)c(C)c3c(=O)n12,0.4
CCOc1cccc(C(=O)N(Cc2ccco2)C2CCS(=O)(=O)C2)c1 (configuration not stated),i
CCC(=O)N1CCN(c2ccc(NC(=O)c3ccc4c(c3)OCO4)cc2)CC1,0.5
COc1cc2ccccc2cc1C(=O)Nc1cccnc1,0.1
Cn1cc(/C=C2/SC(=O)N(c3ccccc3)C2=O)c2ccccc21,i
Cc1cc(C(=O)O)c(CSCc2cc(C(=O)O)oc2C)o1,i
CC(C)Cn1nc(NS(=O)(=O)c2ccccc2)c2cc3ccccc3nc21,1.4
COC(=O)c1ccc(NC(=O)CSCc2ccc(C)cc2)cc1,i
CC1(C)CC(=O)C(C2(O)C(=O)NC(=O)NC2=O)=C(O)C1,i
CN1C(=O)N(C)C(=O)C2(Cc3c(nc4ccccn4c3=O)N3CCc4ccccc4C32)C1=O (configuration not stated),6.8
CSCCC(NC(=O)c1ccc(C)o1)C(=O)O (configuration not stated),i
COc1ccc(Cn2nnnc2C(c2cccnc2)N2CCN(c3ccc(O)cc3)CC2)cc1 (configuration not stated),i
O=C(C1CCCN(S(=O)(=O)c2cccnc2)C1)N1CCN(c2ccccn2)CC1 (configuration not stated),0.4
CC(=O)Nc1ccc(NC(=O)C(C)O/N=C/c2cccc([N+](=O)[O-])c2)cc1 (configuration not stated),i
Cc1[nH]c(=S)n(CC2CCCO2)c1C (configuration not stated),i

# A portion from the list above, for reference:
SMILES,H5N1 CPE
CSCCC(NC(=O)c1ccc(C)o1)C(=O)O (configuration not stated),i
COc1ccc(Cn2nnnc2C(c2cccnc2)N2CCN(c3ccc(O)cc3)CC2)cc1 (configuration not stated),i
O=C(C1CCCN(S(=O)(=O)c2cccnc2)C1)N1CCN(c2ccccn2)CC1 (configuration not stated),0.4
CC(=O)Nc1ccc(NC(=O)C(C)O/N=C/c2cccc([N+](=O)[O-])c2)cc1 (configuration not stated),i
Cc1[nH]c(=S)n(CC2CCCO2)c1C (configuration not stated),i

# Later entries:
SMILES,H5N1 CPE
O=S(=O)(c1ccc2c(c1)nc(COc1ccc(Cl)cc1)n2CC1CCCO1)N1CCOCC1 (configuration not stated),0.6
Cc1c(C(=O)N2CC(C)OC(C)C2)sc2nc(-c3ccccc3)cn12 (configuration not stated),1.2
O=C(CN(c1ccc(F)cc1)S(=O)(=O)c1ccc2c(c1)OCCO2)NCc1ccccn1,i
CCc1ccccc1N(CC)C(=O)c1cn(C)c(=O)c2cc(OC)c(OC)cc12,i
CCCCOCCCNS(=O)(=O)c1ccccc1,0.3
CCS(=O)(=O)n1nc(-c2ccc(Cl)cc2)nc1SC,0.5
O=C(Cc1ccsc1)NCC(c1ccco1)N1CCCCC1 (configuration not stated),0.5
CC(NC(=O)Cn1nc(-c2ccccc2)c2ccccc2c1=O)c1ccccc1 (configuration not stated),0.3
COc1ccc(-n2cnnc2)cc1,i
COc1ccc(S(=O)(=O)N(c2onc(C)c2Cl)S(=O)(=O)c2ccc(OC)c(OC)c2)cc1OC,0.2
c1ccc(Cn2nnnc2C(c2cccs2)N2CCSCC2)cc1 (configuration not stated),2.4
c1ccc2c(c1)nc(N1CCN(C3CCCCC3)CC1)c1nnnn12,0.8
Cn1c(NCc2cccnc2)nc2c1c(=O)n(Cc1ccccc1F)c(=O)n2C,1.2
Cc1cc(C(=O)COc2ccc(-c3nnco3)cc2)c(C)n1Cc1ccccc1,i
O=C(Nc1nccs1)C1CCN(S(=O)(=O)c2ccc3c(c2)OCCCO3)CC1,1.1
Cc1oc2cc(O)ccc2c(=O)c1N1C(=O)c2ccccc2C1=O,0.2
COC(=O)CSc1nnc(C)c(=O)[nH]1,i
CC1=N/C(=C\c2ccc([N+](=O)[O-])cc2)C(=O)N1c1ccc(Cl)cc1,i
O=c1c2ccccc2nc(SCc2cc(=O)n3ccsc3n2)n1CCCO,4.0
COC(=O)C1C(=O)C2=C(CC1C)NC(=O)CC2c1ccccc1 (configuration not stated),i
CCOc1nc(-c2ccccc2)ccc1-c1noc(COC)n1,1.7
Cc1nn(C)c(C)c1S(=O)(=O)N1CCC(C(=O)NC2CCCc3ccccc32)CC1 (configuration not stated),i
Cc1ccc(CCN2CC(C(=O)NCCCN3CCCCCC3)CC2=O)cc1 (configuration not stated),0.6
CCCN(CCC)Cc1cc2ccccc2c2c1COC2,i
C=CCc1ccccc1OCC(CN1CCCCC1)OC(C)=O (configuration not stated),i
C/C(=N\NC(=O)Cc1cccn1C)c1ccc2ccccc2c1,0.2
O=C1NC(c2cc3c(cc2Cl)OCO3)Oc2ccccc21 (configuration not stated),i
O=C(CSc1nnc(COc2ccccc2)n1-c1ccccc1)c1ccccc1,4.8
Cn1c2c(c(=O)n(C)c1=O)CN(Cc1ccc(F)cc1)CN2,0.3
Cc1ccc(S(=O)(=O)NC(C)C(=O)NC2CCCCCC2)cc1 (configuration not stated),0.2
CCCc1nc2ccccc2n1CCOc1ccccc1,0.0
COc1ccc(CNC(=O)c2noc3c2CCCC3)cc1,0.8
Cc1onc(-c2c(F)cccc2Cl)c1C(=O)OCC(=O)Nc1c(C)n(C)n(-c2ccccc2)c1=O,i
Cc1ccnc(NS(=O)(=O)c2ccc(NC(=O)C34CC5CC(CC(C5)C3)C4)cc2)n1,0.0
COc1ccccc1NC(=O)CSc1nnnn1C,1.6
C=CCn1c(=O)n(CCOC)c(=O)c2sc3ccccc3c21,1.4
CCn1c(=O)c2c(cnn2C)c2ccccc21,0.5
O=C(COc1ccc(Cl)cc1Cl)NC(=S)N1CCCc2ccccc21,i
O=C(O)C1CCN(c2nc(-c3ccccc3)nc3c2oc2ccccc23)CC1,1.3
COc1ccc(NC(=O)/C=C/C(=O)O)cc1Cl,0.4
Cc1c(/C=N/NC(=O)C(C)(C)Oc2ccc(Cl)cc2)cnn1C,i
O=C(Cc1ccc2cccnc2c1)c1ccc(O)cc1O,i
CCCCn1cnc2c(cnn2-c2ccc(Cl)cc2)c1=O,0.2
O=C(Nc1cccc(-c2nnc(-c3ccccc3)o2)c1)C1CCCO1 (configuration not stated),i
N#CC1=C(SCC(=O)c2ccc(Br)cc2)NC2=C(C(=O)CCC2)C1c1ccco1 (configuration not stated),i
COc1ccc(C(=O)N(Cc2ccccc2)Cc2cc3cc4c(cc3[nH]c2=O)OCCO4)cc1,i
N#CC(C(=O)OCc1ccccc1)c1nc2ccccc2nc1N1CCOCC1 (configuration not stated),i
CCC(=O)N(Cc1cc2cc(OC)ccc2[nH]c1=O)c1ccc(C)cc1C,i
CCOC(=O)c1sc(NC(C)=O)cc1C,1.3
Cc1ccc(-c2noc(CCC(=O)NC3CCN(Cc4ccccc4)CC3)n2)cc1,3.4

# (continued)
SMILES,H5N1 CPE
CCN(CC)C(=O)CSc1nnc(-c2ccccc2)o1,i
COc1cc2ccccc2cc1C(=O)O,i
Cc1cc(C)c2nc(C(F)(F)F)c(C#N)c(N)c2c1,i
COCc1cc(=O)[nH]c(Nc2nc(C)c3ccccc3n2)n1,i
Cc1nc2ccccc2c(=O)n1NC(=O)C1CCCCC1,0.2
CCCCCCNc1cc2n(c(=O)n1)CCc1cc(OC)c(OC)cc1-2,0.9
COc1ccc(NC(=O)Nc2ccc3nc(C)c(C)nc3c2)cc1,0.0
COCc1cc(C)nc(OCC(=O)N/N=C\c2cc(C)n(-c3cccc(C(F)(F)F)c3)c2C)c1C#N,i
CC(C)CCNC(=O)C1CCN(C(=O)N(C)C)CC1,i
O=C(O)C1CC(=O)N(Cc2ccc3c(c2)OCO3)C1 (configuration not stated),0.7
Cc1ccc(NC2=C(Cl)C(=O)OC2OC(=O)c2ccco2)cc1 (configuration not stated),i
CC(/C=C1\N=C(SCc2ccccc2Cl)SC1=O)=C\c1ccccc1,0.1
CCCS(=O)(=O)N1CCCC(c2nc(-c3cccc(OC)c3)no2)C1 (configuration not stated),0.1
COc1cc(OC)cc(C(=O)Nc2ccc3c(c2)COC3=O)c1,i
CCSc1ncnc2c1oc1ccccc12,3.0
CC(C)CC(=O)NC1(C(F)(F)F)C(=O)Nc2c1c(=O)n(C)c(=O)n2C (configuration not stated),i
COc1ccc(C2C(=O)N(C3CCCCC3)CC(=O)N2CC2COc3ccccc3O2)cc1 (configuration not stated),i
Cc1ccc(-n2c(N)c(C#N)c(-c3ccc(Cl)cc3)c(C#N)c2=O)cc1,i
COc1ccc(C(c2nnnn2CCc2ccccc2)N2CCN(C3CCCC3)CC2)cc1OC (configuration not stated),0.3
COc1ccc(CCNS(=O)(=O)c2cn(C)c(=O)n(C)c2=O)cc1,1.9
O=C1C(C=NCC2CCCO2)=C(O)c2ccccc21 (configuration not stated),i
Cn1c(C(=O)NCCN2CCCCCC2)cc2c(=O)n(C)c3ccccc3c21,0.3
CCCC12CN3CC(C)(CN(C1)C3c1ccc(OC(C)C)cc1)C2=O (configuration not stated),i
CCOc1cc(S(=O)(=O)N(CC)CC)ccc1F,i
Cc1nc(C)c(C(=O)C2=C(O)C(=O)N(CCN(C)C)C2c2cccs2)s1 (configuration not stated),0.1
CCCC1S/C(=N/N=C/c2ccc(OC)cc2)N(Cc2ccccc2)C1=O (configuration not stated),i
COc1cc2c3c(c1)c(C1=NC(=S)NC1=O)c(O)n3C(C)(C)C=C2C,i
CCCc1nc(SCC(=O)N2CCc3ccccc32)c2c(C)c(C)sc2n1,i
O=C(CCOc1ccccc1)N1CCN(S(=O)(=O)c2cccs2)CC1,0.7
O=C(c1ccco1)N1CCN(C(=O)C2CCN(S(=O)(=O)c3cnc[nH]3)CC2)CC1,i
O=C(Cn1cc(C(=O)C2CC2)c2ccccc21)NCC1CCCO1 (configuration not stated),i
COc1ccc(NC(=O)Nc2cc(C)ccc2F)cc1,0.7
N/C(=N\OC(=O)Nc1ccc(Cl)c(Cl)c1)c1ncc(C(F)(F)F)cc1Cl,0.2
Cc1ccc(NC(=O)c2nc(C)n(-c3ccc([N+](=O)[O-])cc3)n2)cc1,0.1
Cc1ccc(-n2c(-c3cccc(C)c3)n[nH]c2=S)cc1,1.3
COc1ccc(-n2c(Cc3cccn3C)nnc2SCC(=O)NCc2ccccc2Cl)cc1,i
CCOC(CNC(=O)CCc1c(C)nc2nc(C)nn2c1C)OCC,0.3
CCOc1ccccc1C(=O)NCCCN1CCN(CCCNC(=O)c2ccccc2OCC)CC1,i
COCCCN1C(=O)c2[nH]nc(-c3cc(C)cc(C)c3O)c2C1c1ccc(O)c(OC)c1 (configuration not stated),i
Cc1ccc(Cl)cc1N1CCN(C(=O)CCC(=O)O)CC1,i

# Reprinted at random: two records from the list.
SMILES,H5N1 CPE
COc1ccc(NC(=O)Nc2cc(C)ccc2F)cc1,0.7
O=C(Cn1cc(C(=O)C2CC2)c2ccccc21)NCC1CCCO1 (configuration not stated),i

# Next part:
SMILES,H5N1 CPE
Cc1nnc(-c2cnn(-c3ccccc3)c2N)n1Cc1cccc(C(F)(F)F)c1,i
Cc1onc(-c2ccccc2)c1C(=O)NCCN1CCOCC1,i
NS(=O)(=O)c1ccc(CCNC(=O)Nc2ccc(Cl)cc2)cc1,0.1
CC(=O)Nc1ccc(OC(F)(F)C(F)F)c(NC(C)=O)c1,0.8
CC(C)c1ccc(CNCc2ccccc2)cc1,0.5
Cc1cc(C)nc(-n2nc(C)c(C3(O)C(=O)Nc4ccccc43)c2N)n1 (configuration not stated),0.3
Cc1cc(C)n2nc(C(=O)OCCOc3ccc(Br)cc3)nc2n1,0.2
CCCn1nnnc1SCC(=O)N1CCOCC1,i
Cc1cnn(-c2nc(-c3cccs3)cc(C(F)(F)F)n2)c1,i
COc1ccc(CCNC(=O)C2CC(c3c(Cl)cccc3Cl)=NO2)cc1 (configuration not stated),1.0
CCOC(=O)CN1C(=O)C(O)(CC(=O)c2ccccn2)c2ccccc21 (configuration not stated),1.5
O=C(NCc1ccc2c(c1)OCO2)c1cccc(C(=O)NCc2ccc3c(c2)OCO3)c1,0.1
CCCCn1c(O)c(C(CC)=Nc2cccc(C(=O)O)c2)c(=O)[nH]c1=O,1.6
C/C(=N\NC(=O)C(NC(=O)c1ccccc1)C(C)C)c1ccccc1 (configuration not stated),i
COC(=O)CN(C#N)c1nc(OC)nc(N(C)C)n1,4.8
c1ccc(-c2ccccc2-c2nc(-c3cccnc3)no2)cc1,0.1
COc1ccc(C(=O)C(C)N(C(=O)c2ccc(Cl)cc2Cl)N2C(=O)C3C4C=CC(C4)C3C2=O)cc1 (configuration not stated),0.9
Cc1ccc(-c2nn(C)c(=O)c3ccccc23)cc1CNC(=O)CSc1nc2ccccc2o1,0.2
CCc1ncc(C(O)c2cccc(OC)c2OC)n1C (configuration not stated),i
O=C(CN(Cc1ccccc1)S(=O)(=O)c1ccccc1)N/N=C/c1ccc2c(c1)OCO2,i
Oc1ccccc1/C=N/n1c(-c2cccs2)n[nH]c1=S,0.3
CSc1nnc(Nc2ccccc2C)s1,0.1

# Reformatted: entries from further up.
structure	H5N1 CPE
O=C(CN(Cc1ccccc1)S(=O)(=O)c1ccccc1)N/N=C/c1ccc2c(c1)OCO2	i
Oc1ccccc1/C=N/n1c(-c2cccs2)n[nH]c1=S	0.3

# Only part of the results is shown; count on the stated rates, not on these rows.
